Compound activity: PubChem, National Center for Advancing Translational Sciences (NCATS)
CtBP-E1A blk = CtBP/E1A binding inhibition. activity change, % (no concentration beside the values). AlphaScreen GST-E1A/His-CtBP binding, 1536-well; hits give low values; control for the full effect not named in the record. 340,000 compounds, 0.49% hits; in the data active means activity change below about -65%; inconclusive means about -30% to -65%; inactive means above about -30%; also: % is scaled to controls: 0 for no effect and ±100 for the full control effect
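In 5 uL wells, 23 nL compound meets equimolar GST-E1A and His-CtBP (5X stock 125 nM each) for 2 h, 37 °C. Beads (5X, 50 ug/mL) then 1 h, 37 °C, dark.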
TRPML1 agonist = activates the human TRPML1 channel; Q9GZU1; TRPML1-expressing cells, Ca2+ dye fluorescence, FDSS; host cell line not named in the record; reference of the full effect not given here; activation, % (test concentration not listed); 410,000 compounds, 0.12% hits; AID 624414; in the data active = activation above about 50%; inconclusive = about 30% to 50%; inactive = below about 30%; also: 0% is about no effect; the text of the record puts the active cut at 80%
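Tet-induced TRPML1-DL cells, 1,500 per well, cultured overnight, were loaded with a no-wash Ca2+ dye for 45–90 min. Calcium fluorescence was recorded on the FDSS for 110 s after compound addition, before the EC80 agonist (4 uM 54-4) was added.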
D2 potentiator = positive allosteric modulators of human D2 dopamine receptor; DiscoveRx D2 beta-arrestin cells, luminescence, 90 min; 100% = 57 uM dopamine signal; potentiation, % (test concentration not listed); 360,000 compounds, 0.23% hits; AID 624464; active = potentiation of 50% or more; inconclusive = 30% to 50%; inactive = 30% or less;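 also: compound concentration not given in the record; tested on top of an EC20 dose of dopamine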
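D2 cells co-treated with compound plus 50 nM dopamine (EC20) for 90 min at 37 deg C to detect potentiation. Beta-arrestin recruitment was read as enzyme-fragment luminescence after 1 h at ambient temperature. Full response was set by 57 uM dopamine.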
TRPV1 PAM = potentiators of human vanilloid receptor 1 (TRPV1) | Q8NER1 | TRPV1-expressing cells, Fluo-8 calcium influx, capsaicin EC20 potentiation; host cell line not named in the record; control for the full effect not named in the record | potentiation, % at 8.33 µM | 320,000 compounds, 0.02% hits | AID 540277; active means potentiation above 80%; inconclusive means 30% to 80%; inactive means below 30%; also: 0% is about no effect
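TRPV1-expressing cells were cultured overnight at 35.5C and loaded with Fluo-8 calcium dye for 40 to 90 min at room temperature. After a 10 s baseline, compound was added and calcium influx was read kinetically for 3 min (ex 480/em 520 nm).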
Six1-Eya2 blk = blocks human Six1 binding to Eya2. 360,000 compounds, 0.56% hits. Q15475+O00167. AID 651725. activity change, % (concentration not given with the values). AlphaScreen GST-Six1/His-Eya2 binding, biochemical; hits give low values; control for the full effect not named in the record; in the data active = activity change below about -65%; inconclusive = about -30% to -65%; inactive = above about -30%; also: % is scaled to controls: 0 for no effect and ±100 for the full control effect
Target sequence (O00167 whole entry, looked up): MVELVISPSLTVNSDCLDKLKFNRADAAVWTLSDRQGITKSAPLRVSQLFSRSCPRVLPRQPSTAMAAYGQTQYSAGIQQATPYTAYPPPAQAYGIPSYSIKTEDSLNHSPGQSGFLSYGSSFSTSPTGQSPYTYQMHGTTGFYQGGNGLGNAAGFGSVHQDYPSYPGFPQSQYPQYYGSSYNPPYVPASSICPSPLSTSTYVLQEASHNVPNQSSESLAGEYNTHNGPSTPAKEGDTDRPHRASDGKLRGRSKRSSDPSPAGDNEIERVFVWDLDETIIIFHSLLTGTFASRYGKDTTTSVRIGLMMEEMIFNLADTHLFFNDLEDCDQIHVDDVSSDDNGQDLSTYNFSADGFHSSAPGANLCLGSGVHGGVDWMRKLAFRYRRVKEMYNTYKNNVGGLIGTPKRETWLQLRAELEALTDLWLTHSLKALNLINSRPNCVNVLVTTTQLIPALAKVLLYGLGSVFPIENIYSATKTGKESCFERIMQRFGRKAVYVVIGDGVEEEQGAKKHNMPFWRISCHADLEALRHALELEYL
Target sequence (Q15475 whole entry, looked up): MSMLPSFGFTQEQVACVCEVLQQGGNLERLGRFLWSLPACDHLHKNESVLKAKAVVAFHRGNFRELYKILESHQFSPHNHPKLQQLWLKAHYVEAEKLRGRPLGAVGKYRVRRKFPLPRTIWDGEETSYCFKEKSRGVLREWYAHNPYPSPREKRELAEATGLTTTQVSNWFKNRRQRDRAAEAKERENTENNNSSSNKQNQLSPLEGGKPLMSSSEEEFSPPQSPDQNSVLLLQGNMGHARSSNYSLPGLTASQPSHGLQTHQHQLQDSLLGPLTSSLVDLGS
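AlphaScreen luminescence read after one hour at 37 °C in darkness. Pin-transferred compounds met GST-Six1 and His-Eya2 protein (5X stock 250 nM/500 nM) plus glutathione donor and Ni-chelate acceptor beads (5X, 50 ug/mL).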
TRPML1 blocker = human mucolipin-1 channel inhibition; Q9GZU1; TRPML1-inducible cells, Ca2+ dye fluorescence, FDSS; hits give low values; inhibition of EC80 agonist-evoked calcium signal; activity change, negative = inhibition, % (concentration not given with the values); 390,000 compounds, 0.02% hits; in the data active means activity change below about -50%; inconclusive means about -30% to -50%; inactive means above about -30%;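 also: stimulus is agonist 54-4 at its EC80 concentration; % is scaled to controls: 0 for no effect and ±100 for the full control effect; the text of the record puts the active cut at -80%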
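Calcium fluorescence in TRPML1-DL cells induced overnight with Tet: a 110 s read after compound pin addition, then a 110 s antagonist read after challenge with 54-4 at 4 uM final (EC80).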
Starred values were filed as active, the others as inactive; ? = inconclusive; . = no result given.

Values run as follows: CtBP-E1A blk, TRPML1 agonist, D2 potentiator, TRPV1 PAM, Six1-Eya2 blk, TRPML1 blocker
> O=C(/C=C/Nc1ccccc1C(F)(F)F)c1ccco1
→ -1, -0.7, -6, -10, -8, -1
> Cc1cc(NC(=O)C(C)SCC(=O)O)no1 (configuration not stated)
→ -13, -0.3, -15, 30, 5, -18
> CCOC(=O)C1CCN(C(=O)COc2ccc(Cl)cc2C)CC1
→ -3, -0.7, -9, -25, -1, -13
> COc1ccc(-c2ccc(CN3C(C)C(=O)N(Cc4cn(CCC5OCCO5)nn4)CCS3(=O)=O)cc2)cc1 (configuration not stated)
→ 2, -0.4, -4, ., -12, 8
> C=CCn1c(O)c(C2=c3ccccc3=NC2=O)s/c1=N/c1nccs1
→ -3, -0.9, 7, ?, -13, 30
> O=C(CSc1nnc(-c2ccccc2)c2ccccc12)NCCN1C(=O)CSC1=O
→ -14, 1.7, -4, 22, -9, 6
> CCN(CC)C(=O)c1oc2ccc(S(=O)(=O)N3CCCCCC3)cc2c1C
→ -26, -0.4, -17, -5, -1, 34
> COC(=O)c1cc(CSc2nc3ccccc3c(=O)n2C)oc1C
→ 9, 0.4, 7, -3, -6, -9
> CC1(C)N=C(N)N=C(N)N1c1cccc(CC(=O)Nc2ccccc2)c1
→ -4, 0.9, -21, ., 1, 6
> C/C(=N\NS(=O)(=O)c1cccc([N+](=O)[O-])c1)c1cc2ccccc2o1
→ -5, 0.7, -9, 0, -1, 2

Quoted at random: four compounds from above
Values run as follows: CtBP-E1A blk, TRPML1 agonist, D2 potentiator, TRPV1 PAM, Six1-Eya2 blk, TRPML1 blocker
> CC1(C)N=C(N)N=C(N)N1c1cccc(CC(=O)Nc2ccccc2)c1
→ -4, 0.9, -21, ., 1, 6
> CCOC(=O)C1CCN(C(=O)COc2ccc(Cl)cc2C)CC1
→ -3, -0.7, -9, -25, -1, -13
> O=C(CSc1nnc(-c2ccccc2)c2ccccc12)NCCN1C(=O)CSC1=O
→ -14, 1.7, -4, 22, -9, 6
> COC(=O)c1cc(CSc2nc3ccccc3c(=O)n2C)oc1C
→ 9, 0.4, 7, -3, -6, -9

Next entries follow.
Values run as follows: CtBP-E1A blk, TRPML1 agonist, D2 potentiator, TRPV1 PAM, Six1-Eya2 blk, TRPML1 blocker
> CCCc1cc(-c2n[nH]c(C(=O)OCC)c2-c2cscn2)c(O)cc1O
→ -4, 0.3, 0, 18, -4, -4
> COc1cccc(OCCOc2cccc(/C=N/n3cnnc3)c2)c1
→ 1, -1.0, 6, -6, 2, 29
> CCOC(=O)c1ccc(S(=O)(=O)N2CCC(C(=O)NCC3COc4ccccc4O3)CC2)cc1 (configuration not stated)
→ -6, -0.3, -17, ., 10, 4
> CS(=O)(=O)N(CC(=O)N1CCC(C(N)=O)CC1)c1ccc(Cl)c(C(F)(F)F)c1
→ 16, 0.6, -5, 0, 0, -11
> N=C1CCCN1CC(=O)c1cccs1
→ 6, -0.2, -21, 2, 4, 23
> CCOC(=O)c1cc(-c2csc(-c3ccc(C(C)(C)C)cc3)n2)on1
→ 7, 1.6, -23, ., 2, 4
> CNc1snc(C)c1C(=O)OC(C)C(=O)NCc1ccccc1 (configuration not stated)
→ 4, -1.0, -6, -25, -3, 21
> Cc1ccc(-c2cc(C(=O)Nc3cc(C(=O)O)ccc3C)c3ccccc3n2)cc1
→ 0, 1.5, 5, 6, 6, 65
> Nc1ccccc1-c1n[nH]c(=S)s1
→ -1, 0.3, -11, 2, 3, 12
> Cn1nc(CC(=O)Nc2ccc3c(c2)OCCO3)c2ccccc2c1=O
→ 2, -1.0, -5, 81*, -1, 30
> CCOC(=O)/C=C1\SCC(=O)N1CC(=O)N1CCOCC1
→ ., 0.7, -12, 0, 7, -14
> Cc1cc(/C=N/NC(=O)c2c(Br)cnn2C)c(C)n1-c1cccc(Br)c1
→ 4, 1.5, -7, 5, -16, 26
> NNC(=O)Cc1csc(-c2ccccc2)n1
→ ., -1.0, -20, 4, 4, -13
> CC(C)NC(=S)NN=C1CCCCCCCCCCC1
→ -12, -0.1, 0, -6, -17, 27
> CC(C)=CCc1cc([C@@H]2COc3c(ccc4c3C=CC(C)(C)O4)C2)c(O)cc1O
→ -11, ., -3, ., -18, .
> CCc1cc(SC#N)ccc1N
→ -20, -0.3, -54, -2, 11, -4
> CCCc1cc(=O)[nH]c(SCC(=O)N2N=C(c3ccc(Cl)cc3)CC2c2ccco2)n1 (configuration not stated)
→ -1, -0.1, -4, -8, -28, -15
> NC(=O)c1ccc(NC(=O)COC(=O)C2CC3C=CC2C3)cc1 (configuration not stated)
→ -1, 0.4, -5, ., -3, -6
> CCOC(=O)c1c(C)n(C)c2cc(-c3ccc(F)cc3)c(O)cc12
→ -14, -0.5, -1, 2, 1, 24
> CCCNC(=O)C1(C)CCN1C(=O)c1ccc(C(C)(C)C)cc1 (configuration not stated)
→ 8, 1.0, -9, ., 4, 4
> CC(Nc1cc(=O)n(C)c(=O)n1C)c1ccccc1 (configuration not stated)
→ 8, 0.9, -8, 19, 2, 6
> C#CC(C)(CC)NC(=O)Cn1nnc(-c2ccc(S(C)(=O)=O)cc2)n1 (configuration not stated)
→ -1, 0.3, 14, -4, 10, -3
> O=C(O)CCN(Cc1ccccc1)S(=O)(=O)c1c(Cl)cccc1Cl
→ -4, -1.0, -5, -9, 2, -23
> COc1ccc(-n2nc3c(N)n[nH]c3cc2=O)cc1
→ -27, 0.6, -6, -2, -5, -3
> CN(CCc1ccccc1)C(c1cc2ccccc2o1)c1nnnn1C(C)(C)C (configuration not stated)
→ 1, 70*, ., ., 5, .
> COc1ccc(CCNC(=O)C/C(C)=N/NC(=O)c2ccc([N+](=O)[O-])cc2Cl)cc1OC
→ 23, 1.9, 6, 7, 17, 0
> CC(=O)c1sc(N/N=C\c2ccc(N(C)C)cc2)nc1C
→ ., -0.5, -11, -4, 16, 1
> COC(=O)c1cccc(NC(=O)/C(=C\c2ccccc2)NC(=O)c2ccccc2Cl)c1
→ 7, 0.7, -6, -10, -1, 4
> CCCNS(=O)(=O)c1ccc(OCC(=O)NCc2ccc3c(c2)OCO3)cc1
→ 7, -0.5, -4, -7, -1, 2
> COC(=O)Cc1c(C)c2ccc(OC3CCCCC3=O)c(C)c2oc1=O (configuration not stated)
→ 4, -1.3, -5, 0, 6, 21
> CC1CCCC(C)N1C(=O)COC(=O)c1ccc2c(c1)OCO2 (configuration not stated)
→ -5, 0.1, -16, -4, 12, 47
> Cn1cc(Cl)c(C(=O)NNC(=S)NC2CCCCC2)n1
→ -9, -0.5, -19, 2, -8, 8
> Cc1ccccc1C(=O)NC1CCN(CC(=O)Nc2ccc3c(c2)OCO3)CC1
→ ., 3.0, -6, 1, 1, 14
> CCCCC(CCC(=O)Nc1nccs1)C(=O)O (configuration not stated)
→ 3, 0.0, 6, -2, 0, -7
> C/C(=N\NC(=O)CCC(=O)NCc1ccccc1)c1ccco1
→ 2, 0.3, -10, -2, 6, -2
> O=C(Cn1cnc2ccccc21)Nc1cccc(S(=O)(=O)N2CCCC2)c1
→ -14, -0.3, -7, 4, -7, -2
> C/C(=N\NC(=O)C1CC1(c1ccccc1)c1ccccc1)c1cccc([N+](=O)[O-])c1 (configuration not stated)
→ -4, 0.1, -2, 1, 3, 11
> COc1ccc(N2CCN(S(=O)(=O)CC34CCC(CC3=O)C4(C)C)CC2)cc1 (configuration not stated)
→ 0, 0.1, -4, 29, -8, 0
> COc1ccccc1-c1sc2ccccc2c1-c1ccc(C(C)=O)cc1
→ 19, 1.7, -2, -12, 0, 36
> CCC(C)n1ncn(-c2ccc(N3CCN(c4ccc(OC)cc4)CC3)cc2)c1=O (configuration not stated)
→ 0, -0.4, 10, 1, 3, 8
> Cc1nc(C)n(C(C)CNC(=O)c2ccco2)n1 (configuration not stated)
→ -10, -0.7, 9, -9, 12, 12
> COc1cc(N/N=C(\C)c2ccc(O)c(C)c2)nc(-c2ccccc2)n1
→ -9, 1.6, -9, -9, -8, 13
> Nc1ncc(-c2ccc([N+](=O)[O-])cc2)cn1
→ -6, -0.1, 10, -15, 11, 25
> CC(=O)Nc1ccc(NC(=O)c2ccc(NS(=O)(=O)c3cc(C(C)(C)C)cc(C)c3C)cc2)cc1
→ 20, 0.5, 8, -6, 0, 3
> CC(=O)Oc1oc(-c2ccccc2)nc1C=Nc1ccccc1
→ -2, -0.9, -11, 7, 3, 5
> FC(F)(F)c1ccc(/C=N/N2CCN(Cc3cccc4ccccc34)CC2)cc1
→ -8, 0.2, -7, 13, 3, -18
> O=C(Nc1nc2c(F)cccc2s1)C1CC1
→ 1, 0.2, 1, 5, -6, 9
> CC(C(=O)OCC(=O)c1ccc(Br)cc1)N1C(=O)C2C3C=CC(C3)C2C1=O (configuration not stated)
→ 5, 0.0, -1, 29, 0, 25
> CCn1nc(C)cc1Nc1ccccc1
→ 7, -0.5, -15, -7, 1, 21
> Cc1cccc(OCCOCCN2CCNCC2)c1C
→ -8, 1.6, -21, -5, 2, -8

Next part.
Values run as follows: CtBP-E1A blk, TRPML1 agonist, D2 potentiator, TRPV1 PAM, Six1-Eya2 blk, TRPML1 blocker
> Cc1cc(NC(=O)CCCn2cnc([N+](=O)[O-])n2)no1
→ 8, ., -2, -1, 3, .
> O=C(Nc1nccs1)C1CCCN(S(=O)(=O)c2cccnc2)C1 (configuration not stated)
→ 5, 0.5, -5, -4, 2, -10
> O=C(CCCc1nc(-c2ccccc2Cl)no1)NC1CCCCC1
→ -2, -0.1, -16, 8, -5, -7
> O=C(COC(=O)CC1CC2CCC1C2)Nc1ccccc1[N+](=O)[O-] (configuration not stated)
→ -4, 2.2, 0, ., ?, 19
> CCCCN(CC)CCNC(=O)Cn1cnc2sc(C)c(S(=O)(=O)N3CCOCC3)c2c1=O
→ 0, -0.9, -3, -4, 6, 9
> O=S(=O)(c1ccc(SCCOc2ccc(Cl)cc2)nc1)N1CCCC1
→ 6, 1.1, -5, -3, 8, -5
> Cc1ccccc1S(=O)c1ccccc1C(=O)O (configuration not stated)
→ 13, 1.5, 5, 12, 17, -13
> Clc1c(CSc2nc3ccccc3o2)nc2sccn12
→ -10, 2.0, -4, -36, -3, -13
> Cc1ccc(SCCNC(=O)C(CO)(CO)CO)cc1
→ -7, 0.3, -8, 6, -6, -3
> Cc1nc2ccc(C(=O)OCc3nnc(-c4ccc(Br)cc4)o3)cc2nc1C
→ -3, 0.3, 7, -26, -17, -3
> CCOC(=O)c1ccc(NC(=O)CSCCC(=O)O)cc1
→ 8, -0.6, -4, -2, 0, 2
> Cc1ccsc1/C=N/NC(=O)CNC(=O)c1cccc([N+](=O)[O-])c1C
→ ., 3.1, 2, 0, -1, 8
> CC(C)(C)c1ccc(-n2ncc3c2CCCC3NC(=O)CN2CCOC2=O)cc1 (configuration not stated)
→ 1, 0.2, -6, -14, 2, 12
> COC1(OC)N=C(NC(=O)Nc2ccccc2)C2(C#N)C(c3ccccc3)C12C#N (configuration not stated)
→ 0, 1.6, -10, 11, -5, 5
> CN(C)c1cccc(C(=O)NNC(=O)CSc2ccccc2)c1
→ -11, 0.3, -6, 8, 3, -8
> Cc1[nH]c(=O)[nH]c(=O)c1S(=O)(=O)Nc1ccc(F)c([N+](=O)[O-])c1
→ 10, 0.7, 0, -5, 4, 23
> CC(C)(CO)Nc1nc(Cl)nc(NC2CCCCC2)n1
→ ., -0.7, -21, -2, 2, 5
